# StopGo reporter: FMDV 2A StopGo reporter, luciferase signal; human cells with a luciferase reporter of 2A StopGo recoding; control for the full effect not named in the record; Potency, µM (highest dose often 57.9 µM), for inactives: at the highest dose signal change, negative = less light; 1.2% of 410,000 active; active = well fitted falling curve with a large enough effect; inconclusive = small, poorly fitted or top-dose-only effect; inactive = no such curve, though single readings can be large or run the other way; tested in HEK293T cells; further: on the % scale 0 is the no-effect control and ±100 the full control effect; nearly all actives have a fitted effect of over 45% in size; luciferase light after 4 h
# Marburg entry inh: inhibitors of Marburg virus binding or cell entry; Marburg virus pseudotyped entry inhibition, cell reporter; control for the full effect not named in the record; about a third of the inactives were read at about 46 µM; Potency, µM (top dose mostly 37.8 µM), for the others: top-dose activity change, negative = inhibition, actives largely listed as inhibitors; 1.8% of 300,000 active; active = well fitted inhibition curve with a large enough effect; inconclusive = small, poorly fitted or top-dose-only effect, or effect the other way; inactive = flat fitted curve, though single readings scatter; tested in HEK293 cells; about a fifth of its hits are not listed in these tables; further: on the % scale 0 is the no-effect control and ±100 the full control effect; luciferase read-out
# RE007 growth inh: less growth of the S. pombe RE007 Vpr strain. S. pombe RE007 Vpr strain, BacTiter-Glo ATP luminescence, 24 h; control for the full effect not named in the record. 0.21% of 360,000 active. Potency, µM (series often up to 92.2 µM), for inactives: at the highest dose activity change, negative = less growth. AID 651644; active = well fitted falling curve with a large enough effect; inconclusive = small, poorly fitted or top-dose-only effect; inactive = no such curve, though single readings can be large or run the other way;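 further: on the % scale 0 is the no-effect control and ±100 the full control effect; nearly all actives have a fitted effect of over 50% in size; the assay follows cell death caused by Vpr and the record does not say whether a fall means rescue or toxicity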
#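 Fission yeast strain RE007, carrying one chromosomally integrated HIV-1 vpr copy, was seeded at OD 0.01 in PMG+AL medium with 23 nL pinned compound. After 24 h at 30 °C and 99% humidity, viability was read by BacTiter-Glo luminescence.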
# SARS PLpro yeast: blocks SARS-CoV papain-like protease in a yeast assay; AID 485353; 0.19% of 330,000 active; S. cerevisiae expressing SARS-CoV PLpro, growth rescue; control for the full effect not named in the record; Potency, µM (series often up to 32.9 µM), for the others: at the top dose activity, positive = growth rescue; active means well fitted rising curve with a large enough effect; inconclusive means small, poorly fitted or top-dose-only effect; inactive means no such curve, though single readings can be large or run the other way; further: 0% is about no effect; nearly all actives have a fitted effect of over 55% in size; growth read by luminescence after 48 h
# Cruzain inh noDet: cruzain (T. cruzi) inhibition without detergent; purified cruzain, Z-FR-AMC fluorescence, no detergent; P25779; AID 1476; 2.3% of 200,000 active; Potency, µM, for inactives: max response, negative = inhibition, usual class: inhibitors;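 further: plate controls were enzyme without inhibitor for no effect and buffer without enzyme for full effect; nearly all actives have a fitted effect of over 40% in size; top concentration of the series not given in the record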
# Target sequence (P25779 123-467 limits assumed): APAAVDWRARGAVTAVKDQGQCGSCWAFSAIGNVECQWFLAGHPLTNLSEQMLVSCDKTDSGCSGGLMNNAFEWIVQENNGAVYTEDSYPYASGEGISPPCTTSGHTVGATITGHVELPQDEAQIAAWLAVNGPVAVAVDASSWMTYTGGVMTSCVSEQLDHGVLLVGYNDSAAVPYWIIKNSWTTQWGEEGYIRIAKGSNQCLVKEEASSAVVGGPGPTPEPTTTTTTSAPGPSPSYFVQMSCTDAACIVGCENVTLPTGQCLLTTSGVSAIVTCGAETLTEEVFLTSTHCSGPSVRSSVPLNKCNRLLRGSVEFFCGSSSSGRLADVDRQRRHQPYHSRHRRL
#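 Purified cruzain at 1.5 nM, pre-incubated 15 min with compound at room temperature in 100 mM sodium acetate pH 5.5, 5 mM DTT, 0.00005% Triton X-100. Reaction started with 2 uM Z-FR-AMC; AMC fluorescence increase over 60 s gives rate.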
# Cruzain inh Det: cruzain (T. cruzi) inhibition with detergent. purified cruzain, Z-FR-AMC fluorescence, 0.01% Triton. Potency, µM, for the others: max response, negative = inhibition, actives largely listed as inhibitors. 0.43% of 200,000 active;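 further: plate controls were neutral wells for no effect and buffer without enzyme for full effect; nearly all actives have a fitted effect of over 40% in size; top concentration of the series not given in the record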
#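 Detergent-containing run (0.01% Triton X-100) in acetate buffer pH 5.5 with 5 mM DTT: enzyme at 1.5 nM final, 15 min compound preincubation at room temperature, then 2 uM Z-FR-AMC substrate. Activity taken as 60 s fluorescence increase at 360/450 nm.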
# LASV entry inh: Lassa virus entry inhibition. Lassa virus pseudotype entry inhibition, cell reporter; control for the full effect not named in the record. Potency, µM (series often up to 37.9 µM), without a hit: at the highest dose activity change, negative = inhibition, actives largely listed as inhibitors. 1.2% of 300,000 active. AID 540256; active means well fitted inhibition curve with a large enough effect; inconclusive means small, poorly fitted or top-dose-only effect, or effect the other way; inactive means flat fitted curve, though single readings scatter; tested in HEK293 cells; further: on the % scale 0 is the no-effect control and ±100 the full control effect; nearly all actives have a fitted effect of over 50% in size; luciferase read-out
# NS1 inh: blocks influenza NS1 protein function; AID 2326; Potency, µM (doses to about 46.1 µM), without a hit: top-dose activity, positive = more growth; 0.4% of 270,000 active; S. cerevisiae slowed by influenza A NS1, growth recovery by OD600; active means well fitted rising curve with a large enough effect; inconclusive means small, poorly fitted or top-dose-only effect; inactive means no such curve, though single readings can be large or run the other way; further: nearly all actives have a fitted effect of over 50% in size
#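 S. cerevisiae expressing influenza A NS1, grown in glucose, washed, then diluted 1:100 into pH 6.0 -URA galactose medium with 23 nl compound. Growth recovery read as OD600; NS1-free strain serves as control.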
# An asterisk follows results filed as active; ? = inconclusive; . = not tested or not shown; & = joins results of further samples; [ ] = dose if it differs, or a comment. Unless noted, the call rests on the fitted dose curve; in most records, active means well fitted curve in the direction sought with a large enough effect; inconclusive means small, poorly fitted or top-dose-only effect, or another doubt; inactive means no such curve, though single readings can be large; an effect the other way counts as inactive or inconclusive. Potency means the concentration at half of the fitted maximal effect.
SMILES,StopGo reporter,Marburg entry inh,RE007 growth inh,SARS PLpro yeast,Cruzain inh noDet,Cruzain inh Det,LASV entry inh,NS1 inh
CCCCC(=O)Nc1cc(C)c2c(=O)oc3ccccc3c2n1,0%,-36%,21%,-3%,1%,-3.5%,8%,-20%
CC(=O)Nc1ccc(C(=O)OCC(=O)Nc2ccccc2Sc2ccccc2)cc1,-26%,13%,-6%,-86%,24%,-9.7%,?,5%
CC1(C)CC(=O)C(C=NC(CCC(N)=O)C(=O)O)=C(O)C1 (stereo not drawn),.,3%,6%,-3%,-8%,0.3%,9%,4%
Cc1c(N=C2SCC(=O)N2/N=C\c2ccc(Br)cc2)c(=O)n(-c2ccccc2)n1C,-15%,?,-19%,0%,0%,-10%,-2%,-10%
O=C(O)CCCn1cc(NC(=O)c2c(F)cccc2F)cn1,-8%,-3%[46.1 µM],-14%,1%,.,.,11%,0%
CCC(C)n1c(O)c(C(c2ccccn2)c2c(O)n(C(C)CC)c(=S)[nH]c2=O)c(=O)[nH]c1=S (stereo not drawn),.,-10%,18%,5%,8%,1.6%,0%,?
Cc1cc(C)nc(SCC(=O)N/N=C/c2cccnc2)n1,-4%,.,14%,1%,.,.,.,7%
C/C(=N/Nc1nc(-c2ccccc2)cc(-c2ccccc2)n1)c1ccc(N)cc1,.,.,.,-50%,-17%,-17%,.,7.9µM*
COc1cccc(C(=O)Nc2c3c(nn2-c2ccc(Cl)cc2)CS(=O)(=O)C3)c1OC,4%,-23%[46.1 µM],-2%,22%,.,.,?,5%
CCS(=O)(=O)Nc1cccc(-c2nc3cccnc3s2)c1,15%,.,0%,-4%,.,.,.,-35%
CCn1c2ccc(F)cc2c2nnc(SCCN3CCCCC3)nc21,-25%&-2%,?,-8%,0%,13µM*,14µM*,13%&2%[46.1 µM],-5%
CC(=O)c1ccc(OCC(=O)N2CCCC(N(C)Cc3ccccc3)C2)cc1 (stereo not drawn),-10%,0%,5%,-3%,.,.,-13%,7%
CN1/C(=C\C=C2\N=C(c3ccc(F)cc3)OC2=O)C(C)(C)c2ccccc21,-28%,-7%,-10%,-6%,?,-0.9%,10%,-1%
COc1ccc(OC)c(S(=O)(=O)Nc2ccc3[nH]c(=O)[nH]c3c2)c1,-25%&0%,1%[46.1 µM],-1%,1%,-5%,-1.2%,-2%[46.1 µM],-1%
Cc1cccc(C)c1NC(=O)CNC(=O)C12CC3CC(CC(O)(C3)C1)C2,-12%,?,4%,5%,.,.,0%,.

# Molecules shown so far that have two or more sulfur atoms:
SMILES,StopGo reporter,Marburg entry inh,RE007 growth inh,SARS PLpro yeast,Cruzain inh noDet,Cruzain inh Det,LASV entry inh,NS1 inh
CCC(C)n1c(O)c(C(c2ccccn2)c2c(O)n(C(C)CC)c(=S)[nH]c2=O)c(=O)[nH]c1=S (stereo not drawn),.,-10%,18%,5%,8%,1.6%,0%,?
CCS(=O)(=O)Nc1cccc(-c2nc3cccnc3s2)c1,15%,.,0%,-4%,.,.,.,-35%

# Continuation.
SMILES,StopGo reporter,Marburg entry inh,RE007 growth inh,SARS PLpro yeast,Cruzain inh noDet,Cruzain inh Det,LASV entry inh,NS1 inh
O=C(Cc1ccccc1)NCC(=O)OCC(=O)c1ccc(Cl)c([N+](=O)[O-])c1,-12%,21%,0%,-1%,16µM*,?,-8%,1%
O=C(CSc1ccc2ccccc2c1)Nc1nc2ccccc2[nH]1,-24%,1%,16%,11%,16µM*,-1.2%,13%,12%
Cc1ccc(/C([O-])=C(/C(=S)NCCN2CCOCC2)[n+]2ccccc2)cc1[N+](=O)[O-],-24%,.,-4%,-2%,.,.,.,9%
CCOC(=O)C1C(=O)NC(SCC(N)=O)=C(C#N)C1c1ccccc1OCC (stereo not drawn),31%[activator],-5%,23%,4%,13%,-2.3%,-24%,8%
Cc1ccc(C)c(NC(=O)CSc2n[nH]c(-c3ccncc3)n2)c1,-2%,10%[46.1 µM],-1%,2%,-10%,5.5%,15%,4%
Cc1nonc1CN(C)C(=O)CC1C(=O)NCCN1Cc1ccccc1F (stereo not drawn),-9%,4%,3%,-4%,.,.,2%,11%
Cc1ccc(CN(CC(=O)N/N=C/c2ccccc2[N+](=O)[O-])S(=O)(=O)c2ccc(C)cc2)cc1,-20%,?,-23%,-2%,?,-4.8%,?,?
CN(C)S(=O)(=O)c1cccc(NC(=O)COC(=O)c2c[nH]c(=O)[nH]c2=O)c1,-11%,-3%[46.1 µM],6%,0%,.,.,-16%,.
O=C(c1ccc(OCC2CCCO2)cc1)N1CCN(c2ccccc2)CC1 (stereo not drawn),-15%,8%,7%,1%,21%,1.6%,-5%,-9%
CCC1CCCCN1CCCNC(=O)CS(=O)Cc1nc(-c2ccc(OC)c(OC)c2)oc1C (stereo not drawn),-10%,.,-4%,11%,.,.,.,13%
O=C(CN1C(=O)NC2(CCCC2)C1=O)Nc1ccccc1,-9%,0%[46.1 µM],42%,2%,.,.,7%,16%
Cc1ccc(NCc2nnc(SCC(=O)NCc3ccco3)n2CC2CCCO2)c(C)c1 (stereo not drawn),14%,-23%&-23%,-5%,-2%,13%,-5.5%,2%,2%
CCOC(=O)c1c(S(=O)(=O)N2CCCC(C(=O)N(C)Cc3ccccc3)C2)c(C)n(C)c1C (stereo not drawn),29%,.,.,.,23%,0.5%,-9%[46.1 µM],.
O=C(CN1C(=O)CC(c2ccccc2)=Nc2ccccc21)Nc1ccc(Br)cc1,22%,.,.,.,45%,0.4%,-16%[46.1 µM],.
Cc1ccc(C(=O)COC(=O)CNC(=O)Cc2ccccc2)cc1,-8%,?,3%,0%,.,.,27%,-1%
COCCNC(=O)COC(=O)c1cccnc1SC,6%,?,-4%,0%,.,.,-8%[46.1 µM],.
O=C(C1CC1)N1CCc2cc(Br)cc(S(=O)(=O)NCCCN3CCCC3)c21,28%,-17%&-17%,-7%,-1%,-8%,-6.0%,2%,1%
CC(C1CC2CCC1C2)N1CC(O)=C(c2nc3ccccc3[nH]2)C1=N (stereo not drawn),-5%,?,10%,1%,.,.,-2%,-6%
C/C=C/C=C\C(=O)Nc1cccc(C2=NOC3(C2)C[C@@H](C(N)=O)N(C(=O)c2cc([N+](=O)[O-])cc([N+](=O)[O-])c2)C3)c1 (stereo partly drawn),-15%,.,-6%,5%,.,.,.,-6%
Cc1cccc(OCCn2c(NC(=O)c3ccco3)nc3ccccc32)c1,-15%,?,?,-3%,-3%,-17%,-27%,-22%[9.22 µM]
CN(CC(=O)Nc1ccc(F)c(F)c1F)c1cnccn1,.,5%,.,6%,-10%,-4.5%,.,-5%
Cc1ccc(CNC(=O)[C@H](C)N2C(=O)N3CCc4c([nH]c5ccccc45)[C@@]3(C)C2=O)cc1,?,.,-10%,3%,.,.,.,12%
COc1ccc(C(=O)Nc2nnc(Cc3ccc(OC)c(OC)c3)s2)c(OC)c1,-5%,?,-6%,-5%,.,.,?,-8%
O=C(N/N=C/c1c(O)n(Cc2ccccc2)c(=O)[nH]c1=O)c1ccncc1,-14%,3%,-12%,1%,.,.,23%,9%
COc1ccc(CCNC(=O)CCn2c(=O)c3cccn3c3cccnc32)cc1OC,20%&-4%,7%&7%[46.1 µM],-14%,5%,-11%,-0.5%,-21%&0%[46.1 µM],6%
COCCn1c(SCc2nc3ccccc3c(=O)[nH]2)nnc1-c1ccncc1,0%,-2%,3%,-5%,0%,1.6%,8%,-7%
O=C(c1ccccc1Cl)n1nc(-c2cccnc2)nc1NCc1ccc(F)cc1,-13%,4%[46.1 µM],.,.,-10%,-7.7%,0%[46.1 µM],.
CCOCCCNC(=O)c1c(NC(=O)c2cc(=O)c3ccccc3o2)sc2c1CCC2,6%,-1%[46.1 µM],.,.,-8%,-0.8%,?,.
COc1ccc(C(=O)NC(=S)NCCc2ccccc2)cc1,26%,?,10%,1%,.,.,6%[46.1 µM],-2%
Cn1c(=O)c2c(nc(NCc3ccc4c(c3)OCO4)n2Cc2ccccc2Cl)n(C)c1=O,7%,-17%,-2%,4%,-14%,-6.7%,-29%,16%
O=C1C2CC3N1CCC31c3ccccc3-n3c1c2ccc3=O (stereo not drawn),-22%,7%,5%,.,.,.,0%[46.1 µM],.
C=CCNc1nc(-c2sc(NC(C)=O)nc2C)cs1,27%,-28%,13%,-3%,-1%,-4.7%,-25%,-8%
CCN(C(=O)CN1CCOCC1)c1c(N)n(Cc2ccccc2)c(=O)[nH]c1=O,-8%,10%[46.1 µM],-4%,1%,.,.,0%[46.1 µM],2%

# Random excerpt: 3 compounds from above
SMILES,StopGo reporter,Marburg entry inh,RE007 growth inh,SARS PLpro yeast,Cruzain inh noDet,Cruzain inh Det,LASV entry inh,NS1 inh
COCCn1c(SCc2nc3ccccc3c(=O)[nH]2)nnc1-c1ccncc1,0%,-2%,3%,-5%,0%,1.6%,8%,-7%
Cc1ccc(CNC(=O)[C@H](C)N2C(=O)N3CCc4c([nH]c5ccccc45)[C@@]3(C)C2=O)cc1,?,.,-10%,3%,.,.,.,12%
COc1ccc(CCNC(=O)CCn2c(=O)c3cccn3c3cccnc32)cc1OC,20%&-4%,7%&7%[46.1 µM],-14%,5%,-11%,-0.5%,-21%&0%[46.1 µM],6%

# Rows were taken by chance. Share with any hit: about 4.5%.
